Bioassay records as filed in PubChem BioAssay.
VACV mCherry inh = inhibitors of vaccinia virus infection (mCherry reporter signal); Vaccinia virus mCherry reporter infection, fluorescence; about a quarter of the inactives have no number; Potency, µM (titrated, usually from 36.5 µM), inactives show at the highest dose activity change, negative = inhibition, usual class: inhibitors; 0.63% of 310,000 active; active = well fitted inhibition curve with a large enough effect; inconclusive = small, poorly fitted or top-dose-only effect; inactive = no such curve, though single readings can be large or run the other way; tested in A549 cells; note: nearly all actives have a fitted effect of over 35% in size; inactives centre near -10
Vaccinia Venus = vaccinia inhibition (Venus reporter); Potency, µM (highest dose often 36.5 µM), without a hit: at the top dose activity change, negative = inhibition, hits mostly inhibitors; Vaccinia virus Venus reporter expression, fluorescence; 0.46% of 330,000 active; active means well fitted inhibition curve with a large enough effect; inconclusive means small, poorly fitted or top-dose-only effect; inactive means no such curve, though single readings can be large or run the other way; tested in A549 cells; note: nearly all actives have a fitted effect of over 30% in size; inactives centre near -10
* marks the source's active call; other numbers are inactive results; i = inactive; ? = inconclusive; · = not tested or not shown; & = joins results of further samples; [ ] = dose if it differs, or a comment. % is set by controls: 0 for no effect and ±100 for the full control effect; potency is the fitted concentration of half-maximal effect.

nr	structure	VACV mCherry inh	Vaccinia Venus
1	O=C(O)Cc1sc(-c2ccccc2)nc1-c1cccs1	-8%	-3%
2	Cc1ccc(-n2c(SCC(=O)NCc3ccco3)nnc2-c2cccnc2)cc1	i	-2%
3	COc1ccc(C(=O)/C=C/c2ccc(O)cc2)cc1	i	-5%
4	CNCC[C@H](Oc1ccc(C(F)(F)F)cc1)c1ccccc1	-4%	-19%
5	Cc1ccc(NC(=O)c2cc(C)nc3c2c(C)nn3-c2cccc(Cl)c2C)c(C)c1	-6%	-17%
6	Cn1c(=O)c2cc(NC(=O)Nc3cccnc3)ccc2n1Cc1ccc(Cl)cc1	19%	-8%
7	CCOC(=O)C1(Cc2ccccc2C)CCCN(C(=O)c2ccc(CSC)o2)C1 (configuration not stated)	-16%	-11%
8	Cc1c(C(c2cc3c(cc2Br)OCO3)c2c(C)n(C)n(-c3ccccc3)c2=O)c(=O)n(-c2ccccc2)n1C	-4%	1%
9	N#CCCN(C(=O)CSc1ccc2c(c1)OCCO2)c1ccc(F)cc1	·	-10%
10	Cc1ccc(Sc2ccc(N3CCCC(C(=O)Nc4ccc(Cl)cc4)C3)nn2)cc1 (configuration not stated)	?	?
11	O=S1(=O)CCOC[C@H](c2ccccc2)N1Cc1cccc(Cl)c1	-5%&-15%	-14%&-15%
12	Cc1sc2nc(SCC(=O)NCCOCCO)nc(N)c2c1C	i	-15%
13	O=C(Oc1ccc2c(c1)OCC2=O)c1ccc(Cl)cc1	i	-6%
14	CCCNC(=O)Cn1cccc1C(=O)c1ccccc1	-8%	0%
15	NC(=O)N1CCN(CCCN2c3ccccc3Sc3cc(Cl)ccc32)CC1	-15%	-27%
16	O=C(NCc1ccccc1)C1CC(=O)N(C2CCCCC2)C1 (configuration not stated)	-11%	2%
17	Cn1nnc2cc(C(=O)N3CCN(c4ccccn4)CC3)ccc21	i	-12%
18	O=C1CCN(Cc2ccc(O)cc2)CCN1CCO	-11%	-12%&-8%
19	Clc1ccc2nc(CN3CCCc4ccccc43)cn2c1	i	-8%
20	O=C(c1ccc(Cl)c(Cl)c1)N1CCC(=O)N(C(COCc2cccc(Cl)c2)Cc2ccccc2)CC1 (configuration not stated)	-21%	?

A different layout for part of the listing above.
4: CNCC[C@H](Oc1ccc(C(F)(F)F)cc1)c1ccccc1
  VACV mCherry inh: -4%
  Vaccinia Venus: -19%
5: Cc1ccc(NC(=O)c2cc(C)nc3c2c(C)nn3-c2cccc(Cl)c2C)c(C)c1
  VACV mCherry inh: -6%
  Vaccinia Venus: -17%
6: Cn1c(=O)c2cc(NC(=O)Nc3cccnc3)ccc2n1Cc1ccc(Cl)cc1
  VACV mCherry inh: 19%
  Vaccinia Venus: -8%
7: CCOC(=O)C1(Cc2ccccc2C)CCCN(C(=O)c2ccc(CSC)o2)C1 (configuration not stated)
  VACV mCherry inh: -16%
  Vaccinia Venus: -11%

Returning to the listing, starting six compounds before the break.
nr	structure	VACV mCherry inh	Vaccinia Venus
15	NC(=O)N1CCN(CCCN2c3ccccc3Sc3cc(Cl)ccc32)CC1	-15%	-27%
16	O=C(NCc1ccccc1)C1CC(=O)N(C2CCCCC2)C1 (configuration not stated)	-11%	2%
17	Cn1nnc2cc(C(=O)N3CCN(c4ccccn4)CC3)ccc21	i	-12%
18	O=C1CCN(Cc2ccc(O)cc2)CCN1CCO	-11%	-12%&-8%
19	Clc1ccc2nc(CN3CCCc4ccccc43)cn2c1	i	-8%
20	O=C(c1ccc(Cl)c(Cl)c1)N1CCC(=O)N(C(COCc2cccc(Cl)c2)Cc2ccccc2)CC1 (configuration not stated)	-21%	?
21	O=C(CN1CCCC1)Nc1c2c(cc3c1CCC3)CCC2	-22%	-7%
22	CCOc1ccc(N(C(=O)Cn2nnc3ccccc32)C(C(=O)NCc2ccccc2)c2ccc(OC)cc2)cc1 (configuration not stated)	-6%	-8%
23	CN(C)c1ccc(-c2ccnc3c2CC(C)(C(=O)NCc2ccncc2)O3)cc1 (configuration not stated)	i	-16%
24	O=C(C[n+]1cccc(O)c1)Nc1ccc(Br)cc1	-11%	5%
25	O=C(NC(c1ccc(Cl)cc1)c1cnccn1)C1CCN(Cc2cccc(C(F)(F)F)c2)CC1 (configuration not stated)	i	?
26	CCN(CC)CC(=O)Nc1sc(C)c(C)c1C(=O)c1ccc(C)cc1	-15%	-7%
27	CCOC(=O)Cn1c(=O)n(CC2CCCO2)c2nc(-c3cc(OC)ccc3OC)nc(C(N)=O)c21 (configuration not stated)	-6%	-1%
28	COc1cc(NC(=O)c2ccco2)c(OC)cc1NC(=O)Nc1cccc(Cl)c1	-16%	-16%
29	Cc1ccc(OCCn2c(C)nc3ccccc32)cc1	-11%	-18%
30	CCOc1ccc2nc(NC(=O)C3CCCN(S(=O)(=O)c4cccs4)C3)sc2c1 (configuration not stated)	·	?
31	COC(=O)C1=CO[C@@H](C)[C@H]2CN3CC[C@]4(C(=O)Nc5ccccc54)[C@@H]3C[C@H]12	-2%	-5%
32	CC(C)NC(=O)N(C)C[C@H]1Oc2ccc(NC(=O)Nc3ccc(C(F)(F)F)cc3)cc2C(=O)N([C@H](C)CO)C[C@@H]1C	7%	-18%
33	O=C1C=C2C=C[C@@H]3C[C@@]2(O1)[C@H]1CCCCN31	?	14µM*
34	Cc1ccc(Cl)cc1N1CCN(C(=O)C2CCC(=O)N2C(C)C)CC1 (configuration not stated)	-12%	-2%
35	CS(=O)(=O)N(CC(=O)Nc1ccccc1)c1cccc(Cl)c1Cl	-9%	-22%
36	CCN(CC)C(=O)Cn1cc(SCC(=O)Nc2ccc(C)cc2)c2ccccc21	-6%	-1%
37	Cc1nc2nncn2c(Nc2ccc(F)cc2)c1C	-18%	-14%
38	COc1cccc(NC(=O)Cn2cnc3sc(C)c(S(=O)(=O)N4CCN(C)CC4)c3c2=O)c1	-14%	-9%
39	[O-]/[N+](=C/c1cccnc1)c1ccc(Br)cc1	-15%	21%
40	O=C(CCCOc1ccc(Cl)cc1Cl)N/N=C/c1ccccc1O	7.1µM*	?
41	NNC(=O)c1csc(-c2ncc(C(F)(F)F)cc2Cl)n1	i	-12%
42	O=C(NCc1ccccn1)c1nn(-c2ccccc2)c(=O)c2ccccc12	3%	-5%
43	COc1ccc(Cl)cc1CC1(C)C(=O)Nc2ccc(-c3ccccc3OC)cc21 (configuration not stated)	-18%	-27%
44	O=P(NS(=O)(=O)c1ccccc1)(Oc1ccccc1)Oc1ccccc1	i	-8%
45	O=C(COc1ccccc1)Nc1ccc2oc(=O)ccc2c1	i	0%
46	CCCN(C)CCCOc1cc2nc(N3CCCN(C)CC3)nc(NC3CCN(C)CC3)c2cc1OC	?	13µM*
47	COc1ccc2c(c1)c(N1CCCC1=O)c(C(=O)Nc1cc(C)c(Cl)cc1OC)n2C	-16%	-6%
48	CCCSC1=N/C(=C\c2ccsc2)C(=O)S1	-7%	-5%
49	O=C(Nc1nccs1)C1=COCCO1	-6%	4%
50	Cc1ccc(O)c(-c2cc(C(=O)NCc3ccccc3)[nH]n2)c1	-14%	-14%
51	CCOC(=O)c1sc(N(C)C(C)=O)nc1C	-18%	-4%
52	NS(=O)(=O)c1ccc(CCNC(=O)c2cc3ccccc3s2)cc1	-11%	-15%
53	CS(=O)(=O)n1nc(-c2ccccc2)nc1N	?	-10%
54	O=C(CS(=O)CC(=O)N(c1ccccc1)C(C(=O)NC1CCCC1)c1cccs1)Nc1ccc(F)cc1 (configuration not stated)	-3%	1%
55	CC(=O)Nc1ccccc1C(=O)N1CCc2ccccc21	·	-9%
56	Cc1cc(C)c(NC(=O)CNC(=O)CN2C(=O)NC3(CCCc4ccccc43)C2=O)c(C)c1 (configuration not stated)	-25%	-7%
57	CC1CCC(NC(=O)c2ccc(Br)o2)CC1 (configuration not stated)	-10%	-10%
58	Cc1cc(=O)oc2cc(OCC(=O)Nc3c(C(C)C)cccc3C(C)C)ccc12	-16%	0%
59	Cn1c(COc2ccccc2)nnc1SCc1cc(=O)[nH]c2ccccc12	-21%	-19%
60	CSc1nnc(-c2ccccc2N=Cc2c(C)[nH]n(-c3ccc4ccccc4c3)c2=O)c(=O)[nH]1	·	-23%

Compound profiles (already shown). Order of values: VACV mCherry inh	Vaccinia Venus
O=C(NC(c1ccc(Cl)cc1)c1cnccn1)C1CCN(Cc2cccc(C(F)(F)F)c2)CC1 (configuration not stated) as listed: i	?
O=C(CS(=O)CC(=O)N(c1ccccc1)C(C(=O)NC1CCCC1)c1cccs1)Nc1ccc(F)cc1 (configuration not stated) as listed: -3%	1%

Carrying on:
(61) COc1cc2nc(N(CCN(C)C)C(=O)c3ccc4ccccc4c3)sc2cc1OC
(62) COc1ccc(C(=O)C(CO)Oc2ccccc2OC)cc1OC (configuration not stated)
(63) CCOc1ccccc1OCCCC(=O)NC1CCCc2ccccc21 (configuration not stated)
(64) Cn1c(SCC(=O)Nc2ccc(C(=O)O)cc2)nc2scc(-c3ccccc3Cl)c2c1=O
(65) Cc1cc(-c2nnc3n2N=C(c2ccccc2)CS3)n[nH]1
(66) COC(=O)c1sccc1-n1cccc1C(=O)C(=O)N1CCCC1
(67) Clc1ccccc1-c1ccc2nccn2c1
(68) COC(=O)c1cc(C(=O)N2CCN(C(=O)c3ccco3)CC2)cc([N+](=O)[O-])c1
(69) CN(C)S(=O)(=O)c1ccc(C(=O)NCc2nc3ccccc3s2)cc1
(70) CCN(CC)C(=O)C(=O)c1cccn1-c1c(Cl)cccc1C#N
assay / compound | 61 | 62 | 63 | 64 | 65 | 66 | 67 | 68 | 69 | 70
VACV mCherry inh | -18% | -12% | -26% | -5% | -12% | i | -11% | -7% | 1% | -30%
Vaccinia Venus | -17% | -6% | -22% | 11% | -19% | -7% | -13% | -8% | -3% | -7%

(71) NC(=O)c1cccc(Nc2nc(C(N)C3CCCCC3)cs2)n1 (configuration not stated)
(72) Fc1ccc(-c2ccc(CNCCSc3nnnn3-c3ccccc3)o2)cc1
(73) c1cc2c(cc1NC1CCCCCC1)OCO2
(74) CCc1ccc(CNC(=O)C2CCCN(S(=O)(=O)c3ccc4c(ccn4C)c3)C2)cc1 (configuration not stated)
(75) Cn1c(=O)c2c(nc(NCCCO)n2C/C=C/c2ccccc2)n(C)c1=O
(76) Cc1cc2c(c(-c3cnccn3)c1)OC(CNC(=O)c1ccc(-n3nc(C)cc3C)cc1)C2 (configuration not stated)
(77) CCc1ccc(CN(C)C(=O)CCc2nnc(CCc3ccccc3OC)o2)nc1
(78) CCOC(=O)/C=C1\SCC(=O)N1CC(=O)Nc1cc(S(=O)(=O)N(C)C)ccc1C
(79) COc1ccc(-c2cc(C3CC3)nc(N)c2C#N)cc1
(80) COc1cccc(NC(=O)CCC(=O)Nc2cccc(OC)c2)c1
assay / compound | 71 | 72 | 73 | 74 | 75 | 76 | 77 | 78 | 79 | 80
VACV mCherry inh | -15% | -8% | -14% | ? | · | -17% | i | 1% | i | -12%
Vaccinia Venus | -9% | -6% | -2% | -21% | -29% | -12% | -9% | 69%[activator] | -16% | -10%

(81) COc1cc([N+](=O)[O-])ccc1N1C(=O)C2C3C=CC(C4CC34)C2C1=O (configuration not stated)
(82) COc1cc(C2C3C(=O)N(c4ccc(F)cc4)C(=O)C3ON2c2ccccc2)ccc1O (configuration not stated)
(83) COc1ccc(CNC(=O)CSc2ncn[nH]2)cc1OC
(84) COc1ccc(N2C(=O)CC(Nc3ccc(F)cc3)C2=O)c([N+](=O)[O-])c1 (configuration not stated)
(85) Cc1ccc(-c2nc(=S)c3c(n2CC2CCCO2)CC(C)(C)OC3)cc1 (configuration not stated)
(86) COc1ccc(-c2nc(C#N)c(N3CC(C)OC(C)C3)o2)cc1OC (configuration not stated)
(87) CC(C)(C)C1CCc2nc(NC(=O)Cc3ccc(Cl)cc3)sc2C1 (configuration not stated)
(88) Cc1nn(C)c2c1c(-c1ccccc1)cc(=O)n2CC(=O)NC(C)C
(89) O=C(O)C1CCN(C(=O)c2ccc(Cl)cc2)CC1
(90) O=c1oc2ccccc2nc1/C=C(O)/C=C\c1ccccc1
assay / compound | 81 | 82 | 83 | 84 | 85 | 86 | 87 | 88 | 89 | 90
VACV mCherry inh | -15% | i | i | -13% | -14% | · | -9%[7.34 µM] | -9% | · | -23%
Vaccinia Venus | -13% | -13% | -1% | -6% | -9% | 10% | 1%[7.34 µM] | 1% | -24% | -6%
